Screening results as filed in PubChem.
PrP 5UTR inh – suppresses PrP 5' UTR mRNA reporter expression; cell-based PrP 5' UTR mRNA reporter, plate reader; inhibition, % (concentration not given with the values); 340,000 tested, 0.35% active;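 active means every replicate at 50% or more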;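 further: 0 = median of the neutral control wells; tested in H4 reporter cells; numbers are from one replicate; inactives centre near -14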
BJeLR lethal – BJeLR cell viability loss; BJeLR (HRASV12) viability, CellTiter-Glo ATP luminescence, 48 h; reference of the scale not given here; inhibition, % (test concentration not listed); 300,000 tested, 0.17% active;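 active means replicate mean above 50%; inconclusive means above 50% but judged a plate artefact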;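 further: 50 nL library stock added to about 25 µL; numbers are from one replicate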
Mtb hypoxia rep – inhibitors of hypoxia-regulated fluorescent reporter in Mycobacterium tuberculosis. M. tuberculosis hypoxia-regulated fluorescent reporter, fluorescence. 300,000 tested, 0.1% active. fluorescence inhibition, % (concentration not given with the values);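 active means 35 to 45% if threefold the growth effect, above 45% if 1.5-fold the growth effect; inactive means the rest, general growth blockers included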;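 further: wells of about 50 µL received 100 nL stock; 0% = vehicle wells and 100% = reference inhibitor wells; whole bacteria with a GFP reporter of the hypoxia response; strong numbers were not always called active; many hits fall short of the cut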
RN4220 kill – S. aureus RN4220 growth inhibition; OD600, 16 h; 330,000 tested, 0.33% active; inhibition, % (test concentration not listed);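 active means z-score of -3 or lower and OD600 up to 0.18 on both plates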;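 further: plate controls were untreated cells for no effect and reference antibiotic for full effect; stock transfer was 100 nL into about 80 µL; one replicate is shown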
Bead autofluor – compound fluorescence in toxin protease inhibitor counterscreen; compound autofluorescence counterscreen, microsphere flow cytometry; stronger effect = higher value; fluorescence intensity (no concentration beside the values); 360,000 tested, 3.1% active; AID 624483;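 active means at least 3 SD above the mean of all compounds, about 16000 in these data; inconclusive means too few beads counted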;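 further: 100 nL of 1 mM stock went into each well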
ugtP null kill – growth inhibition of S. aureus ugtP deletion strain; S. aureus RN4220 ugtP deletion, OD600 growth, 16 h; some inactives read as strong as hits; growth inhibition, % (concentration not given with the values); 330,000 tested, 0.54% active;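 active means z-score under -3 and OD600 up to 0.15 on both plates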;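 further: plate controls were untreated wells for no effect and antibiotic for full effect; wells of about 80 µL received 100 nL stock; the first replicate is given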
Mtb hypoxia rep growth – second read-out of Mtb hypoxia rep, no call of its own (marks repeat the call); growth inhibition, %; measured here: M. tuberculosis growth (absorbance);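 0% = vehicle and 100% = reference antibiotic; read after six days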
Numbers without * were called inactive; ? = inconclusive; nt = no result given; & = joins results of further samples.

SMILES	PrP 5UTR inh	BJeLR lethal	Mtb hypoxia rep	Mtb hypoxia rep growth	RN4220 kill	Bead autofluor	ugtP null kill
COc1ccc(-c2csc(NC(=O)CSc3nc(SC)ns3)n2)cc1	-36.3	-16.3	16.4	-0.5	-4.4	2538	4.9
Cc1cc(NC(=O)CSc2nnc(Cc3ccccc3)o2)no1	-14.5	1.5	-0.8	7.7	3.0	3100	8.0
O=C(Nc1ccc(Cl)c(S(=O)(=O)N2CCOCC2)c1)c1cc(=O)[nH]c2ccccc12	-16.0	nt	4.3	-0.4	7.5	4757	11.6
COc1ccccc1NC(=O)C1CCN(S(=O)(=O)c2ccc3c(c2)CC(C)N3C(C)=O)CC1 (configuration not stated)	-10.4	18.8	7.2	14.6	-2.0	5524	-3.9
Cn1c(SCc2ccc(C#N)cc2)nnc1-c1cccc(Cl)c1	-0.8	7.6	6.4	6.7	8.3	16948*	12.1
O=C(Cc1cccc(C(F)(F)F)c1)N1CCN(CC(=O)N2CCCC2)CC1	5.2	nt	-2.3	-0.3	1.9	8929	-5.5
CCCOc1ccc(N2C(=O)CC(SC(=N)N3N=C(c4ccccc4)CC3c3ccccc3)C2=O)cc1 (configuration not stated)	7.5	0.8	-3.5	2.9	-11.0	4477	1.2
COc1ccc(N(C(=O)c2cnccn2)C(C(=O)NCc2ccccc2)c2ccc(O)cc2)cc1 (configuration not stated)	-46.2	-7.8	-8.1	-1.8	1.2	5158	13.5
CSc1ccccc1NC(=O)CN1C(=O)C2CC=CCC2C1=O (configuration not stated)	-13.4	nt	-0.4	1.5	2.9	?	1.1
COc1ccc(NC(=O)N(CCO)Cc2cc3c(C)cc(C)cc3[nH]c2=O)cc1	-16.3	10.2	4.7	7.2	2.5	3017	-4.0
CC(=O)Nc1ccc(S(=O)(=O)NCC(=O)Nc2ccc3c(c2)OCO3)cc1	-23.4	nt	10.7	6.6	2.1	3824	1.1
CN(C(=O)c1ccco1)c1nc(CC(=O)Nc2ccccc2)cs1	-14.1	8.9	nt	nt	1.1	3364	6.3
Cc1cc(Cl)ccc1Oc1ncc(CN2CCN(c3ccccc3)CC2)s1	-14.0	-9.9	12.0	8.0	-3.5	4039	14.5
CSc1nc2ccc(NS(=O)(=O)c3ccc(Cl)s3)cc2s1	-61.8	3.7	16.1	5.5	9.1	4394	-6.1
Cc1cc(OC(C)C(=O)Nc2ccc(S(=O)(=O)Nc3onc(C)c3C)cc2)cc(C)c1Cl (configuration not stated)	-28.2	9.0	13.2	5.8	14.5	5061	-10.6
O=C(COc1c(Br)cc(Br)c2cccnc12)Nc1ccccc1F	-2.5	7.7	-4.1	7.7	11.6	4231	20.9
Cn1c(=O)c2nc(-c3ccccc3)c(-c3ccccc3)nc2n(C)c1=O	-16.2	1.6	19.6	18.4	4.6	5645	10.0
COc1cc(C(=O)OCC(=O)NCCN2C(=O)CSC2=O)ccc1OCc1c(C)noc1C	8.4	23.2	4.7	9.4	9.1	4478	3.4
CCCn1cc2c(c1-c1ccc(C)cc1)c(=O)n(C)c(=O)n2C	-32.4	2.8	5.2	-3.6	3.1	2110	5.6
CCCNC(=O)Nc1ccc(C)cc1C	0.2	0.5	nt	nt	nt	3021	nt
O=S(=O)(NCCc1ccccc1)c1cccc2cccnc12	-26.3	4.6	15.0	6.3	13.8	3445	5.9
CN(c1ccc(C(=O)Nc2cccc([N+](=O)[O-])c2)cc1)S(C)(=O)=O	-19.9	1.2	-0.5	13.8	-1.9	4108	-2.6
O=C(CSc1nnc(CN2CCCC2)n1-c1ccccc1)c1ccc2c(c1)OCO2	-26.4	nt	12.9	11.2	5.5	3863	-9.4
Cc1ccc(CNc2ncnc3c2cnn3C2CCCCO2)cc1 (configuration not stated)	-15.2	nt	16.3	13.0	2.6	2762	8.3
O=[N+]([O-])c1cccc(CNCc2ccccc2)c1	-83.9	19.7	11.0	8.5	4.1	4439	3.3
CC(C)c1ccc(-c2nnn(CC(=O)N3CCCCC3)n2)cc1	-2.3	-16.5	-4.8	3.5	-3.7	3749	-3.3
COc1ccc(CNC(=O)[C@@H](NC(=O)C2CCN(C(=O)[C@@H](N)Cc3ccccc3)CC2)C(C)C)cc1	-5.0	0.5	nt	nt	0.5	4651	-8.0
COC(=O)C1=C(C)NC(C)=C(C(=O)OC)C1C(=O)OCC(=O)N1c2ccccc2CC1C (configuration not stated)	-40.6&-4.5	9.2	9.4	4.7	3.0&0.4	3592&3668	0.9&-4.0
COCCN(CCOC)C(=O)c1c[nH]c2ccc(S(=O)(=O)N(C)c3ccc(F)cc3)cc2c1=O	-3.5	-4.0	1.4	3.2	1.9	18595*	0.7
Cc1ccc(S(=O)(=O)N2CCOC23CCN(S(=O)(=O)c2cccs2)CC3)cc1	-22.3	5.3	11.2	1.4	4.6	4438	7.4
O=C1c2ccccc2S(=O)(=O)c2cc(N3CCN(c4ccccn4)CC3)ccc21	-20.7	5.2	nt	nt	nt	3853	nt
COCCNC(=O)CN(c1ccc(C)cc1)S(=O)(=O)c1ccc(SC)cc1	-8.8	12.3	-8.5	4.9	1.9	3296	-5.7
COC(=O)C1=C(c2ccc3ccccc3c2)C[C@@H]2CC[C@H]1N2C(=O)N1CCC(O)CC1	-3.1	nt	1.5	4.3	-1.5	4171	-3.4
CCOC(=O)c1cnn(-c2nc3c(C)cccc3s2)c1C(F)(F)F	-10.3	-4.8	5.8	13.9	-10.3	2477	59.7
Nc1ccccc1C(=O)/C=C/c1ccc2c(c1)OCO2	-49.5	5.8	nt	nt	nt	3958	nt
Cc1nc(-c2ccccc2)sc1C(=O)CSc1ccccc1	-22.3	7.2	nt	nt	2.2	2322	5.2

Compounds from the list above containing fluorine:
SMILES	PrP 5UTR inh	BJeLR lethal	Mtb hypoxia rep	Mtb hypoxia rep growth	RN4220 kill	Bead autofluor	ugtP null kill
O=C(Cc1cccc(C(F)(F)F)c1)N1CCN(CC(=O)N2CCCC2)CC1	5.2	nt	-2.3	-0.3	1.9	8929	-5.5
O=C(COc1c(Br)cc(Br)c2cccnc12)Nc1ccccc1F	-2.5	7.7	-4.1	7.7	11.6	4231	20.9
COCCN(CCOC)C(=O)c1c[nH]c2ccc(S(=O)(=O)N(C)c3ccc(F)cc3)cc2c1=O	-3.5	-4.0	1.4	3.2	1.9	18595*	0.7
CCOC(=O)c1cnn(-c2nc3c(C)cccc3s2)c1C(F)(F)F	-10.3	-4.8	5.8	13.9	-10.3	2477	59.7

Further compounds.
SMILES	PrP 5UTR inh	BJeLR lethal	Mtb hypoxia rep	Mtb hypoxia rep growth	RN4220 kill	Bead autofluor	ugtP null kill
COc1cc2c(cc1OC)CN(CC(=O)Nc1cccc(C(F)(F)F)c1)CC2	-15.9	7.9	-2.2	7.5	-0.3	3778	15.6
CCOC(=O)c1[nH]c2ccc(OC)cc2c1NC(=O)/C=C/c1ccc2c(c1)OCO2	-30.2	-9.5	5.6	-5.3	3.7	9717	-2.4
CC1(O)CCN2C(=O)CCc3cccc1c32 (configuration not stated)	-7.8	nt	-3.2	-5.5	0.1	3960	-3.0
Cn1nc(C(=O)OCC(=O)c2ccccc2)c2ccccc2c1=O	0.8	nt	-12.9	0.7	4.0	?	3.6
FC(F)(F)c1cccc(N2CCc3cn[nH]c32)c1	-45.1	7.3	-7.5	-1.4	31.5	2524	18.8
COc1ccc(OCC(=O)Nc2ccc(N3CCOCC3)cc2)cc1	-23.3	-3.4	13.0	9.1	6.3	5387	4.9
COc1ccccc1CNC(=O)C1CCC(CNC(=O)[C@@H]2Cc3ccccc3CN2)CC1 (some centres not stated)	9.7	-6.1	3.1	1.5	-1.4	4483	-3.0
O=C(Nc1nccs1)c1ccc(Cl)c([N+](=O)[O-])c1	-18.9	0.3	17.9	1.3	2.6	4541	10.9
CC1CC(C)CN(S(=O)(=O)c2cc3c4c(c2)CCC(=O)N4CCC3)C1 (configuration not stated)	-3.6	5.3	5.9	-2.5	3.3	6984	-2.6
O=C1CC(N2CCN(c3ccc(Cl)c(Cl)c3)CC2)C(=O)N1 (configuration not stated)	-10.2	1.9	10.3	11.8	5.9	21082*	0.8
NC(=O)N1c2ccccc2CC(=O)c2ccccc21	-5.9	3.3	4.2	0.8	3.2	4219	-2.3
Oc1cc(NCCN2CCOCC2)cc2cccnc12	-11.0	nt	10.9	4.0	5.8	2791	-6.7
CCOC(=O)Cc1csc(NC(=O)/C=C\c2ccccc2)n1	-15.4	-8.6	-2.0	-8.8	2.1	2059	7.9
CC(C)NC(NC(=O)Cc1ccccc1)C(Cl)(Cl)Cl (configuration not stated)	-3.1	-0.7	7.1	9.1	4.5	2598	-1.8
CC(=O)N1CCC(C(=O)N2CCN(S(=O)(=O)c3cccs3)CC2)CC1	8.6	-1.8	-13.0	1.0	-1.1	6111	-6.8
CC1(C)CC2(CCO1)OC(=O)CC2C(=O)Nc1ccccc1Cl (configuration not stated)	-45.2	1.5	17.0	10.1	7.3	2839	5.7
Cc1cccc(N=C2NC(=O)C(CO)(CO)S2)c1	-7.5	-8.6	16.1	10.4	10.2	4212	1.8
CSCC[C@H](NC(=O)NC1CCCC1)C(=O)O	-4.9	4.0	-2.7	1.1	0.8	4227	-2.6
COc1cccc(C(=O)N2CCN(Cc3cn[nH]c3-c3ccc(F)cc3F)CC2)c1	-1.2	-4.1	1.3	8.9	5.2	3398	7.5
CCC(C)(C)NC(=O)CCCSc1nc2ccccc2s1	-58.3	6.3	15.1	7.0	5.8	4358	8.3
Cc1noc(C)c1COc1ccccc1C(=O)N1CCN(c2cccc(Cl)c2)CC1	-16.4	nt	2.2	11.2	3.8	8213	6.1
O=C1CCC(C(=O)Nc2nnc(C3CC3)s2)=NN1	-15.4	nt	-4.3	5.4	0.6	4317	3.6
Cc1cc([N+](=O)[O-])nn1CC(=O)NNC(=S)Nc1ccc([N+](=O)[O-])cc1	-6.2	-13.9	4.8	11.3	4.0	15797	2.3
O=C(NCCC1CCCCN1S(=O)(=O)c1ccc(F)cc1)C(=O)NCC1CCCO1 (configuration not stated)	-55.1	4.1	3.7	0.5	0.9	5730	6.9

Retrieved by structure from above (two):
SMILES	PrP 5UTR inh	BJeLR lethal	Mtb hypoxia rep	Mtb hypoxia rep growth	RN4220 kill	Bead autofluor	ugtP null kill
Cc1cccc(N=C2NC(=O)C(CO)(CO)S2)c1	-7.5	-8.6	16.1	10.4	10.2	4212	1.8
Cc1cc([N+](=O)[O-])nn1CC(=O)NNC(=S)Nc1ccc([N+](=O)[O-])cc1	-6.2	-13.9	4.8	11.3	4.0	15797	2.3

The list goes on.
SMILES	PrP 5UTR inh	BJeLR lethal	Mtb hypoxia rep	Mtb hypoxia rep growth	RN4220 kill	Bead autofluor	ugtP null kill
COc1cc(C(=O)Nc2ccc3c(c2)OCCO3)ccc1OC(F)F	-71.8	-11.1	7.1	3.7	4.9	8080	14.4
CSc1nc2ccsc2c(=O)n1-c1ccccn1	-10.2	-5.2	1.4	2.0	1.8	3882	1.6
O=C(O)CCc1ccc(-c2ccc(Cl)cc2)n1CC(=O)O	-16.8	0.4	2.1	8.8	0.6	8834	1.4
COc1ccc(C)cc1NC(=O)n1ncc2cc(Cl)ccc21	-14.4	-7.5	-2.1	7.5	4.0	3900	16.7
CCN(c1cccc(C)c1)S(=O)(=O)c1ccc(-n2cccn2)cc1	-50.5	3.2	-1.3	-0.4	4.1	5288	-4.7
COc1ccc(/C(O)=C/c2nc3ccccc3n(-c3ccccc3)c2=O)cc1	-14.1	-5.6	nt	nt	nt	7212	nt
COc1cc(C=NN=Cc2c[nH]c(=O)c(C#N)c2Nc2ccccc2)ccc1O	nt	nt	-3.6	-2.6	1.8	nt	4.1
Cc1ccc(N2C(=O)N(CC(=O)Nc3cccc(Cl)c3)C(=O)C2C)cc1 (configuration not stated)	-56.6	0.7	6.7	4.9	1.4	5382	2.1
CC1=CC(c2ccc(Cl)cc2)n2nc(N3C(=O)CCC3=O)nc2N1 (configuration not stated)	-3.8	-14.5	6.2	-0.6	2.7	3406	9.2
COc1ccc(/C=C/C(=O)N2CCCc3ccccc32)c(OC)c1	-17.9	-7.3	13.5	8.1	2.2	5949	-10.5
COc1nc(NCC(C)C)nc(Oc2ccc(OCc3ccccc3)nn2)n1	2.2	8.8	nt	nt	1.8	4487	3.2
COc1ccc(S(=O)(=O)N2CCCC2)c(C)c1C	-14.0	nt	5.6	4.3	8.5	16035	4.2
O=CNC1c2ccccc2CCc2ccccc21	-19.1	nt	7.5	6.1	3.5	2779	6.9
CCOc1ccc(NC(=S)NCCCc2ccccc2)cc1	-17.5	0.5	15.2	2.0	-1.3	4276	8.0
Cc1cc(C)n(-c2ccc(C(=O)C(C#N)c3nc4ccccc4n3C)cc2)n1 (configuration not stated)	-44.0	1.5	2.2	8.8	0.0	7938	-1.1
